Vif A3G: HIV-1 Vif–A3G interaction blockers – biochemical, TR-FRET, GST-Vif 1-94, biotin-A3G peptide, dose response retest, primary screen (AID 1117319). inhibition, %; hits with a dose series show IC50 in µM. 0.57% of 260,000 active. TR-FRET GST-Vif / biotin-A3G peptide binding; higher % means a stronger effect; test concentration not given here; strong numbers were not always called active;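 active means above the screen mean plus three standard deviations and confirmed in dose response; inconclusive means results disagree or hit not tested in dose response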;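 further: Vif residues 1-94 fused to GST binding biotinylated APOBEC3G peptide 110-148; 0% = full assay without inhibitor and 100% = GST in place of GST-Vif; retest series ran down from 100 µM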
Beta apoptosis: blocks beta cell apoptosis; 0.8% of 300,000 active; protection from apoptosis, % (concentration not given with the values); INS-1E cytokine-induced death, ATP luminescence, 48 h; percent of positive-control rescue, neutral wells zero;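 active means all replicates at 75% or more, or half of them and the mean; inconclusive means half reach 75% but not the mean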;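 further: 0% = cytokine-treated negative control wells and 100% = positive control rescue; higher means more ATP so stronger rescue from cytokine killing; wells of about 40 µL received 100 nL stock; the first replicate is given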
T cruzi inh: blocks replication of Trypanosoma cruzi. AID 1885. inhibition, % (no concentration beside the values). T. cruzi beta-gal in NIH3T3, luminescence, 90 h. 1.4% of 300,000 active;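 active means mean inhibition across valid replicates above about 55%, limit read from the data; inconclusive means mean below that limit but half or more replicates reach it; inactive means mean below it, under half of replicates reach it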;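 further: signal also drops with host cell toxicity which is not excluded here; 0% = plate median of DMSO wells and 100% = zero luminescence signal; higher percent means less beta-gal luminescence so fewer parasites; stock transfer was 50 nL into about 50 µL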
Calb FLC: affects C. albicans growth with fluconazole; C. albicans CaCi-2 (fluconazole-resistant clinical isolate) + fluconazole, Alamar Blue growth, 48 h; growth inhibition, % (concentration not given with the values); 0.57% of 300,000 active; AID 1979;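 active means most replicates above 75%; inconclusive means exactly half above 75%; inactive means most below 75%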;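 further: all wells also contain fluconazole at 8 µg/ml as a sub-toxic cotreatment; 0% = median of DMSO wells and 100% = median of geldanamycin control wells; wells of about 8 µL received 7.5 nL stock; the first replicate is given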
RanGTP-Impb inh: inhibitors of RanGTP-importin-beta interaction, primary screen, biochemical, FRET, CFP-Ran, YFP-importin-beta, homogeneous; cell-free CFP-Ran/YFP-importin-beta FRET ratio; inhibition, % (concentration not given with the values); 1.1% of 300,000 active; AID 2216;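 active means most replicates above 15%; inconclusive means exactly half above 15%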;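 further: 0% = DMSO wells and 100% = Ran loaded with GDP instead of GTP; wells of about 40 µL received 100 nL stock; the first replicate is given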
AF4-AF9 inh: blocks AF4 peptide binding to human AF9 | P42568 | AlphaScreen, biotin-AF4 peptide binding to FLAG-AF9 | inhibition, % at 10 µM | 0.47% of 350,000 active | AID 651704;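 active means every replicate reaching a set inhibition limit, whatever the replicate mean, cut at about 25% in these data; inconclusive means mean inhibition reaches that limit but some replicates miss it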;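 further: 0% = plate neutral control median and 100% = total signal loss; the record names both 10 and 1 µM as test concentration; the first replicate is given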
Target sequence (P42568 whole entry, looked up): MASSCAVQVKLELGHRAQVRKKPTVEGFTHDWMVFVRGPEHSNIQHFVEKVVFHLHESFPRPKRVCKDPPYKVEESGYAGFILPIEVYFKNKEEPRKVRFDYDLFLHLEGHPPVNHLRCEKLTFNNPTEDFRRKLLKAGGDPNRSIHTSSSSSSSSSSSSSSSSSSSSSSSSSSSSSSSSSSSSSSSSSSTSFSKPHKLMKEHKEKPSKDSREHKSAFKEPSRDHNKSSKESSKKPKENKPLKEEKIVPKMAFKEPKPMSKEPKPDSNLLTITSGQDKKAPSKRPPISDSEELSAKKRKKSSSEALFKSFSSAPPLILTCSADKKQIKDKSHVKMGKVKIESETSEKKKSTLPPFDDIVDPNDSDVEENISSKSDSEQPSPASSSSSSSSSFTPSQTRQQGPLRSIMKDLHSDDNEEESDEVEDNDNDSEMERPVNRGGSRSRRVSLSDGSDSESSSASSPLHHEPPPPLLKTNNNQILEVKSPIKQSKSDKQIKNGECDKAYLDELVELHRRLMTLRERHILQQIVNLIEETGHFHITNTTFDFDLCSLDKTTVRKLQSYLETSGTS
A1 inh: inhibitors of the anti-apoptotic protein A1, read as caspase activation; MEF A1-2A-BIM cells, Caspase-Glo 3/7 luminescence, 3 h; percent of clofoctol response, vehicle zero; caspase activation, % (test concentration not listed); 0.066% of 330,000 active; AID 2462;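 active means over half of replicate activation scores above 10%, or exactly half above 10 with the replicate mean above 10; inconclusive means replicate mean below 10 yet half the replicates above 10; inactive means over half of replicates below 10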;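 further: wells of about 30 µL received 50 nL stock; many hits fall short of the cut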
rRNA inh HTS: selective bacterial rRNA inhibition in E. coli; GFP signal change (wild-type ribosome), % (concentration not given with the values); 1.6% of 350,000 active; E. coli WT GFP vs humanized-ribosome RFP mutants, fluorescence, 24 h; stronger effect = lower value; DMSO median 0, no signal -100; AID 720706;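 active means significant combined selectivity score with lowered wild-type GFP, culture density cut under 30%, mutant RFP and density less affected; inactive means any of these conditions unmet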; further: one replicate is shown; some compounds called inactive have numbers as strong as hits
rRNA inh HTS OD600: further read-out of rRNA inh HTS, marked with its call; OD600 change, %; measured here: OD600 growth;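 optical density of the mix in the first replicate; 0 = DMSO median and -100 = no signal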
rRNA inh HTS RFP: recorded beside rRNA inh HTS, whose call it bears; RFP signal change, %; measured here: RFP humanized mutant strains;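 first replicate; 0 = DMSO median and -100 = no signal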
* hit, by the source's call; ? = inconclusive; . = not tested or not shown; & = joins results of further samples. These rows are one share of the data; count on the stated rates, not on these rows.

structure	Vif A3G	Beta apoptosis	T cruzi inh	Calb FLC	RanGTP-Impb inh	AF4-AF9 inh	A1 inh	rRNA inh HTS	rRNA inh HTS OD600	rRNA inh HTS RFP
Cc1ccc(NC(=O)c2ccc(OCC3CCCO3)cc2)nc1 (stereo unspecified)	-2%	-2	-10	13	7.9	-0.5	-0.6	-1	-6	-0.9
COc1ccccc1-c1nc2cc3ccccc3cc2nc1-c1ccccc1	-3%	10	21	?	.	26*	-0.1	-23	-11	12
CCOC(=O)c1c(NC(=O)CSc2nnnn2CC)sc(C)c1C	1%	.	22	0	?	.	1.2	.	.	.
O=C(NC(=S)N1CCN(c2nc(-c3ccccc3)cs2)CC1)c1cncc(Br)c1	-20%	10	5	-1	2.6	1.4	0.5	-34	-40	2.3
Cc1ccc2c(c1)N(CCC(=O)NCc1ccc3c(c1)OCO3)C(=O)CO2	4%	-6	-5	-19	-0.7	.	0.8	.	.	.
CCC(CC)Nc1ccc(C(CC(N)=O)NC(=O)c2ccccc2)cc1[N+](=O)[O-] (stereo unspecified)	.	-1	-12	-1	-0.1	4.7	-0.1	-5	14	-11
CCc1nn(CCCC(=O)NCc2ccc(C)cc2)c(=O)c2cc3occc3n12	.	-1	8	56	1.4	-2.0	0.0	-2	4	-5.3
COCCN(Cc1ccc(C)c(Br)c1)C(=O)Cn1cnc(S(=O)(=O)N2CCCC2)c1	27%	4	-3	5	?	1.9	0.2	3	0	3.8
Cc1cc(C)cc(OCC(=O)NNC(=O)c2ccoc2C)c1	1%	-1	-6	4	-0.6	.	0.2	.	.	.
CCOC(=O)CC1=C(C(=O)OCC)C(c2cccnc2)C(C#N)=C(N)O1 (stereo unspecified)	-3%	-2	-13	10	-4.7	.	0.2	.	.	.
OCc1nc2c(ccc3ccccc32)[nH]1	4%	-7	-3	2	-1.5	-2.3	-0.5	11	7	0.4
COC(=O)c1ccc(C(=O)OC)c(NC(=O)c2cnc3n(c2=O)CCS3)c1	23%	-1	-10	6	-1.5	6.4	1.5	13	9	-5.2
O=C(COC(=O)c1cccnc1Cl)NCCc1ccc(F)cc1	-9%	-3	.	.	.	-2.2	-1.0	4	11	-3.9
COc1ccccc1/C=C/C=N/NC(=O)CC1C(=O)NN=C1C (stereo unspecified)	?	0	-20	8	6.8	3.3	0.0	10	5	1.8
COc1ccc(OC)c(-c2csc(NC(=O)COC(=O)C3CCC3)n2)c1	-2%	0	.	.	.	-0.1	0.4	-13	-11	1.2
Cc1ccc(S(=O)(=O)NCc2ccccc2)cc1C(=O)NCc1ccccn1	.	-2	1	15	4.5	-0.2	-0.1	-1	-4	-1.2
CC(=O)c1ccc(O)c(CO)c1	-1%	-4	7	-13	3.3	.	0.2	.	.	.
CCOC(=O)C1CCCN(S(=O)(=O)c2ccc(-n3cnnn3)c(C)c2)C1 (stereo unspecified)	.	6	-3	32	0.3	0.5	0.5	2	6	0.0
CSc1ncc(CN2CCN(C3CCCCC3)C(CCO)C2)cn1 (stereo unspecified)	.	-3	16	-16	-1.1	-0.6	0.2	14	12	1.8
COc1cc(-c2nnc(COC(=O)c3cc(C)no3)o2)cc(OC)c1OC	.	1	-9	-4	2.0	1.4	0.4	-2	7	-0.1
O=C(NCN1C(=O)C2C3C=CC(C3)C2C1=O)Nc1ccccc1O (stereo unspecified)	-1%	-1	-3	19	2.1	-3.5	-0.7	9	13	1.5
COc1ccc(-c2nonc2NC(=O)c2ccco2)cc1OC	.	-3	11	-1	3.0	0.4	0.3	1	10	-0.1
COc1cccc(C(C)NC(=O)c2ccncc2)c1 (stereo unspecified)	.	8	-3	-6	3.9	-2.7	0.4	16	11	-0.2
Nc1nc2n(n1)C(c1ccco1)CC(c1ccccc1)N2 (stereo unspecified)	19%	.	2	-16	0.6	.	-0.3	.	.	.
COc1ccccc1N1C(=O)c2ccc(C(=O)Nc3ccccc3O)cc2C1=O	0%	-6	-17	14	3.0	-0.4	-2.4	6	3	-11
O=C(COc1ccc2cc(Br)ccc2c1Br)N1CCOCC1	.	-4	.	20	.	-3.6	-0.2	-45	-74	-11
CCOc1ccc2[nH]c(C)c(CN3CCN(CC)CC3)c(=O)c2c1	-2%	-7	-6	10	-1.8	.	-0.4	.	.	.
CCOCCCNc1ncc2c(n1)CC(c1ccc(C)cc1)CC2=O (stereo unspecified)	-3%	-2	-4	-5	-0.8	.	-0.4	.	.	.
O=C(NCCc1cccs1)C12CN(Cc3ccccc3)CC1C(c1cccc([N+](=O)[O-])c1)=NO2 (stereo unspecified)	?	0	27	12	0.3	3.8	2.0	7	1	-1.6
O=[N+]([O-])c1cc([N+](=O)[O-])c(N2CCOCC2)cc1NCc1ccccc1	3%	3	10	-2	3.1	.	-0.7	.	.	.
Cc1cc(Nc2ccccc2Br)n2nc(C)nc2n1	1%	-5	-10	25	2.5	-0.8	1.5	-1	-1	-2.1
CCOCCCNC(=O)CCc1ccc(-n2cnc3cccnc32)cc1	3%	-9	-11	7	0.3	-2.3	1.0	1	2	1.5
Cc1csc(SCc2c(C(=O)O)oc3ccccc23)n1	22%	-4	-6	0	2.7	.	0.3	.	.	.
Cc1ccc(C(=O)N/C(=C/c2ccccc2)C(=O)NCc2ccncc2)cc1	-7%	-3	-20	3	2.1	0.2	-0.3	-19	-5	-2.8
CCN1CCN(C(=O)c2ccc(COc3ccc(Cl)cc3)o2)CC1	4%	-2	27	3	-2.2	.	0.3	.	.	.
CCCCC(=O)NCc1ccc2c(c1)cc(C)n2C	-5%	-1	-3	-2	6.5	.	-0.6	.	.	.
CCCn1nc(C(=O)NNC(=O)CCCOc2ccc(OC)cc2)c2ccccc2c1=O	7%	-3	.	.	.	-1.5	0.7	5	11	-2.9
Cc1ccc(S(=O)(=O)Nn2c(C)ccc2C)cc1	?	-2	0	9	2.3	.	-0.6	.	.	.
N#CCCN(C(=O)COC(=O)Cc1c[nH]c2ccccc12)c1ccccc1	-9%	-7	-14	3	-4.6	1.0	-0.3	0	2	-2.5
COc1cc(-c2noc(C3CCCN(S(=O)(=O)c4cccc(Cl)c4)C3)n2)cc(OC)c1OC (stereo unspecified)	-3%&-5%	4	43	10	-0.9	.	0.0	.	.	.
Cc1ccc(NC(=O)CN(C)C(=O)CCOc2cccc(C)c2)cc1	.	2	-9	2	-2.8	.	1.5	.	.	.
CN(C)CCn1c2c(c(SCC(=O)Nc3cccc(C(F)(F)F)c3)nc1=O)CCCC2	1%	1	34	0	1.0	1.7	-0.3	-5	-11	1.8
O=C(CCCOc1ccc(Br)cc1)Nc1ccc(S(=O)(=O)N2CCOCC2)cc1	-6%	0	15	2	2.7	0.0	0.1	-27	-46	-6.2
CC(=O)N1CCN(c2nnnn2-c2ccccc2)CC1	-4%	0	-8	-15	0.5	.	-0.8	.	.	.
CCOc1ccc(NS(=O)(=O)c2ccc(C(=O)NCc3cccnc3)cc2)cc1	-3%	3	8	.	13	1.5	?	6	-8	3.6
OCC1(C2=NOC(O)(C(F)(F)F)C2)CCCCC1 (stereo unspecified)	17%	-7	1	-5	-2.7	.	1.2	.	.	.
O=C(Cn1cnc2cc([N+](=O)[O-])ccc2c1=O)Nc1ccc2c(c1)OCO2	21%	-4	55*	5	1.5	-7.7	-0.5	4	6	-1.3
COc1ccc(CCC(=O)N2CCN(S(=O)(=O)c3cccc(C(F)(F)F)c3)CC2)cc1OC	-8%	1	.	.	.	4.5	0.1	9	12	-0.7
CCOc1ccccc1Nc1nc(-c2sc(NC(=O)c3ccccc3)nc2C)cs1	8%	21	7	-3	-1.0	.	-13	.	.	.
Cc1ccccc1CNCc1cccnc1	1%	2	-6	20	2.6	.	0.3	.	.	.

(list continues)
structure	Vif A3G	Beta apoptosis	T cruzi inh	Calb FLC	RanGTP-Impb inh	AF4-AF9 inh	A1 inh	rRNA inh HTS	rRNA inh HTS OD600	rRNA inh HTS RFP
Cc1oc(-c2ccccc2F)nc1CSCC(=O)NC1CCCC1	-4%	-3	-1	-9	0.6	-7.0	0.2	-5	-7	2.3
Cn1nc(C(=O)OCC(=O)Nc2ccc(C(N)=O)cc2)c2ccccc2c1=O	-7%	-14	.	.	.	-6.3	0.7	8	15	-1.0
C/C(=N/NC(=O)CCCOc1ccc(Cl)cc1Cl)c1ccc(C)o1	8%	1	10	-20	3.0	.	0.5	.	.	.
CC(=O)N1CCN=C1SCc1ccc(Br)cc1	2%	-20	7	-1	-3.6	-4.8	0.0	0	-7	1.3
Cc1nnc(NC(=O)CSc2nnc(-c3ccccc3)n2C)s1	1%	-5	2	-4	-0.5	-11	0.1	6	17	3.4
CCOc1ccc(NC(=S)N(CCc2c(C)[nH]c3ccc(C)cc23)Cc2ccco2)cc1	3%	-3	45	-10	-3.6	-1.9	0.0	6	3	6.1
CN(CC1CCCN(CCc2cccc(C(F)(F)F)c2)C1)C(=O)c1ccco1 (stereo unspecified)	.	-2	60*	-1	?	2.6	1.2	3	9	-0.3
Cc1ccc(-c2nn(-c3ccccc3)cc2C2CC(c3cccs3)=NN2C(=O)CCC(=O)O)cc1 (stereo unspecified)	0%	0	2	4	4.4	.	0.0	.	.	.
Cc1cccc(N/N=C/c2ccc(C)s2)c1	0%	10	5	-18	3.9	9.2	-1.7	.	.	.
O=C(Nc1cccc(C(F)(F)F)c1)c1c(O)c2ccccc2[nH]c1=O	-4%	.	-4	4	-0.9	.	-0.5	.	.	.

Reformatted with values under each structure: part of the list above
Screens in order: Vif A3G	Beta apoptosis	T cruzi inh	Calb FLC	RanGTP-Impb inh	AF4-AF9 inh	A1 inh	rRNA inh HTS	rRNA inh HTS OD600	rRNA inh HTS RFP
COc1ccccc1-c1nc2cc3ccccc3cc2nc1-c1ccccc1
    -3%	10	21	?	.	26*	-0.1	-23	-11	12
CCOC(=O)c1c(NC(=O)CSc2nnnn2CC)sc(C)c1C
    1%	.	22	0	?	.	1.2	.	.	.

Taken from above.
Beta apoptosis with Cc1cccc(N/N=C/c2ccc(C)s2)c1 → 10
A1 inh with Cn1nc(C(=O)OCC(=O)Nc2ccc(C(N)=O)cc2)c2ccccc2c1=O → 0.7
A1 inh with CC(=O)N1CCN=C1SCc1ccc(Br)cc1 → 0.0
rRNA inh HTS with Cc1nnc(NC(=O)CSc2nnc(-c3ccccc3)n2C)s1 → 6

From PubChem
